From PubChem BioAssay
StopGo reporter: FMDV 2A StopGo reporter, luciferase signal; human cells with a luciferase reporter of 2A StopGo recoding; control for the full effect not named in the record; 410,000 tested, 1.2% active; Potency, µM (top dose mostly 57.9 µM), for the others: top-dose signal change, negative = less light; active = well fitted falling curve with a large enough effect; inconclusive = small, poorly fitted or top-dose-only effect; inactive = no such curve, though single readings can be large or run the other way; tested in HEK293T cells; also: % is scaled to controls: 0 for no effect and ±100 for the full control effect; nearly all actives have a fitted effect of over 45% in size; luciferase light after 4 h
SARS PLP yeast: SARS-CoV PLP inhibition in yeast; S. cerevisiae expressing SARS-CoV PLpro, growth rescue; control for the full effect not named in the record; Potency, µM (titrated, usually from 32.9 µM), for inactives: at the top dose activity, positive = growth rescue; 330,000 tested, 0.19% active; active means well fitted rising curve with a large enough effect; inconclusive means small, poorly fitted or top-dose-only effect; inactive means no such curve, though single readings can be large or run the other way; also: 0% is about no effect; nearly all actives have a fitted effect of over 55% in size; growth read by luminescence after 48 h
RE007 growth inh: less growth of the S. pombe RE007 Vpr strain. 360,000 tested, 0.21% active. Potency, µM (series often up to 92.2 µM), for inactives: top-dose activity change, negative = less growth. S. pombe RE007 Vpr strain, BacTiter-Glo ATP luminescence, 24 h; control for the full effect not named in the record; active = well fitted falling curve with a large enough effect; inconclusive = small, poorly fitted or top-dose-only effect; inactive = no such curve, though single readings can be large or run the other way;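 also: % is scaled to controls: 0 for no effect and ±100 for the full control effect; nearly all actives have a fitted effect of over 50% in size; the assay follows cell death caused by Vpr and the record does not say whether a fall means rescue or toxicity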
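Fission yeast RE007 carrying one integrated HIV-1 vpr copy, seeded at OD 0.01 in PMG+AL medium with 23 nL pinned compound. Grown 24 h at 30 degrees; viability read by BacTiter-Glo luminescence after 5 min.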
* marks the source's active call; other numbers are inactive results; ? = inconclusive; [ ] = dose if it differs, or a comment. Potency is read from the fitted curve at half-maximal effect. Some of the compounds tested; rates above refer to the full screens.

structure	StopGo reporter	SARS PLP yeast	RE007 growth inh
Cc1ccccc1NC(=O)CON=C(N)c1ccccc1	-18%	3%	-17%
CCCCCc1c(O)nc(SCCN(CC)CC)[nH]c1=O	-5%	0%	4%
COc1ccc(C(=O)OCCc2cc3ccccc3c(=O)o2)cc1	7%	-3%	-10%
Cc1ccccc1NC(=O)COC(=O)c1cccc(S(=O)(=O)N2CCCCC2)c1	-15%	0%	-4%
CC1CCN(C(C)C(=O)Nc2ccc(S(=O)(=O)N3CCCC3)cc2)CC1 (stereo not drawn)	-16%	-10%	0%
C=CCn1c(SCC(=O)c2ccc(O)c(O)c2)nnc1-c1cccc(C)c1	0%	1%	-14%
O=C(Nc1ccc(OC(F)F)cc1)c1cc(S(=O)(=O)N2CCCCC2)ccc1N1CCOCC1	10%	6%	7%
Cc1ccc(CN2CC(C(=O)NCCC3=CCCCC3)CC2=O)cc1 (stereo not drawn)	-14%	-1%	-3%
CCCOc1ccc(N/C=C/C(=O)C(C)(C)C)cc1	48%[activator]	0%	0%
CC(=O)c1ccc(N2C(=O)CC(N3CCN(S(=O)(=O)c4ccc(C)c(C)c4)CC3)C2=O)cc1 (stereo not drawn)	-11%	3%	-23%
CCN(CC(=O)Nc1ccc(NC(C)=O)cc1)S(=O)(=O)/C=C/c1ccccc1	-7%	-2%	6%
COc1ccc(NC(=O)Nc2ccc3c(c2)C(=O)N([C@H](C)CO)C[C@H](C)[C@@H](CN(C)S(=O)(=O)c2ccc(F)cc2)O3)cc1	-14%	-2%	0%
Cn1c(CN2CCOCC2)nnc1SCc1cccc(F)c1	-8%	2%	0%
O=C(COc1ccc(Br)cc1F)Nc1nnc(C2CC2)s1	-2%	0%	-2%
Cc1ccc(CONC(=O)c2ccc(C)cc2)cc1	58%[activator]	1%	4%
COc1ccccc1NC(=S)N/N=C1\CC(C)(C)Oc2ccc(O)cc21	?	-1%	1%
COc1ccc(CC(=O)Nc2ccc(S(=O)(=O)N3CCC(C)CC3)cc2)c(OC)c1	-20%	-5%	3%
Cc1cc(C(=O)COC(=O)c2ccc(O)cc2)c(C)n1CC(F)(F)F	43%[activator]	-2%	0%
NS(=O)(=O)c1ccc(CNC(=O)c2ccc(Cl)c(S(=O)(=O)NCc3ccccc3)c2)cc1	28%	0%	2%
Cc1ccc(S(=O)(=O)N2[C@@H](c3ccc(C(C)(C)C)cc3)C(C(=O)O)=CC[C@H]2c2ccc(Cl)c(Cl)c2)cc1	-25%	-5%	-5%
Cc1ccc(S(=O)(=O)N2CCOCC2)cc1C(=O)Nc1ccc2c(c1)OCCO2	-26%	-2%	-10%
CN(C)C1=NC[C@H](Cc2ccccc2)N1CCCC1CCCC1	-23%	-1%	-9%
COc1ccccc1CNC(=O)CSc1ccsc1[N+](=O)[O-]	36%[activator]	2%	12%
NC(=O)Cn1c(-c2nonc2N)nc2ccccc21	0%	0%	13%
CCOc1ccc(CCNC(=O)C2CCCN2C(=O)OCc2ccccc2)cc1OCC (stereo not drawn)	-9%	1%	8%
COc1ccc(CNC(=O)CCC(=O)N2CCN(S(=O)(=O)c3ccc(Cl)cc3)CC2)cc1	-7%	0%	0%
CC(=O)C[C@H](O)CC(=O)[C@H]1OC(=O)[C@H](C)CCCCc2ccccc21	-16%	-1%	6%
CC(OC(=O)CCN=C1NS(=O)(=O)c2ccccc21)C(=O)Nc1ccc(N(C)C)cc1 (stereo not drawn)	5%	-6%	9%
C=CCOC(Cn1ccnc1)c1ccc(Cl)cc1Cl (stereo not drawn)	?	11%	2%
COc1cccc(NC(=O)C2CCCC2)c1	34%[activator]	2%	-24%

Results in SARS PLP yeast (six entries from above):
smiles	SARS PLP yeast
Cc1ccc(S(=O)(=O)N2[C@@H](c3ccc(C(C)(C)C)cc3)C(C(=O)O)=CC[C@H]2c2ccc(Cl)c(Cl)c2)cc1	-5%
Cc1ccc(S(=O)(=O)N2CCOCC2)cc1C(=O)Nc1ccc2c(c1)OCCO2	-2%
CN(C)C1=NC[C@H](Cc2ccccc2)N1CCCC1CCCC1	-1%
COc1ccccc1CNC(=O)CSc1ccsc1[N+](=O)[O-]	2%
NC(=O)Cn1c(-c2nonc2N)nc2ccccc21	0%
CCOc1ccc(CCNC(=O)C2CCCN2C(=O)OCc2ccccc2)cc1OCC (stereo not drawn)	1%

Taken from above.
StopGo reporter with `C=CCn1c(SCC(=O)c2ccc(O)c(O)c2)nnc1-c1cccc(C)c1` = 0%
SARS PLP yeast with `Cc1ccc(S(=O)(=O)N2CCOCC2)cc1C(=O)Nc1ccc2c(c1)OCCO2` = -2%

Continued:
structure	StopGo reporter	SARS PLP yeast	RE007 growth inh
CC1O[C@@H](O[C@H](C)CC/C=C/C(=O)O)C(O)C[C@H]1O (stereo partly drawn)	-16%	-10%	1%
COc1ccc(S(=O)(=O)N2CCOCC2)cc1C(=O)N(C)Cc1ccco1	0%	-3%	-4%
CC1CCCC(NC(=O)NC(=O)COC(=O)C2=NN(c3ccccc3)C(=O)CC2)C1C (stereo not drawn)	-7%	-6%	6%
Cc1ccc(F)cc1NS(=O)(=O)c1ccc(Cl)s1	-6%	-15%	-15%
C[C@H]1CN=C(N(C)C)N1CCC1CCCCC1	-9%	-1%	8%
Cc1ccc(S(=O)(=O)NCCN2CCN(S(=O)(=O)c3ccccc3Cl)CC2)cc1	-12%	3%	3%
O=C(Nc1ccc(Oc2ccc(Br)cc2)cc1)C1=CC=CN2CCS(=O)(=O)N=C12	?	-13%	4%
Cc1cccc(C)c1N=Cc1c(C(F)(F)F)[nH][nH]c1=O	-9%	-1%	4%
Cc1onc(-c2ccccc2Cl)c1C(=O)OCC(=O)N1CCC(C)CC1	42%[activator]	2%	-17%
COc1ccc(CCNC(=O)CSc2nc3[nH]ncc3c(=O)n2-c2ccccc2OC)cc1OC	-15%	-1%	-3%
CC(=O)N1CCC2(CC1)C/C(=N\NC(=S)Nc1ccccc1C)c1cc(O)ccc1O2	-13%	-4%	19%
C[C@H](CO)N1C[C@H](C)[C@@H](CN(C)S(C)(=O)=O)Oc2ccc(NC(=O)Nc3ccc4c(c3)OCO4)cc2C1=O	0%	-15%	-7%
O=C(NC1CC1)C1CCCN(C(=O)NC2CCCCC2)C1 (stereo not drawn)	5%	-1%	-13%
Cc1ccccc1NC(=O)CCC(=O)N/N=C/c1ccc(F)cc1	2%	0%	-4%
COc1ccc(CCNC(=O)Cn2c(=O)n(CCCC(=O)NCc3ccco3)c(=O)c3sccc32)cc1OC	-1%	1%	24%
O=C1CC(SC2=NCCS2)C(=O)N1c1cccc(Cl)c1Cl (stereo not drawn)	-4%	2%	4%
O=C(CNC(=O)c1ccc(Br)o1)NNC(=O)c1n[nH]c(=O)c2ccccc12	22%	6%	-1%
CC(=O)/C(N=Nc1ccc(SC(F)F)cc1)=C(\C)O	22%	-1%	-5%
CCC(C)Sc1ccc(-c2nc3ccc(C)cn3c2NC2CCCCC2)cc1 (stereo not drawn)	-12%	3%	?
O=C1N(c2ccccc2C(F)(F)F)O[C@@]1(c1ccccc1)C1CCCC1	-24%	-15%	2%
CCN(CC)CCNc1ccc2nnc(CCNS(=O)(=O)c3ccc(C)cc3)n2n1	-1%	0%	-1%
O=C(OCCN1C(=O)c2ccccc2C1=O)[C@@H]1CC(O)CN1S(=O)(=O)c1ccccc1[N+](=O)[O-] (stereo partly drawn)	-23%	-1%	0%
CC[C@]12c3[nH]c4cc(CCC(=O)N(C)C)ccc4c3CCN1C(=O)[C@@H](CC(=O)NCCN1CCOCC1)C[C@@H]2C(=O)N1CCN(C(=O)c2ccco2)CC1	-12%	15%	-13%
O=C(NCC(c1ccco1)N1CCCC1)c1cc(=O)[nH]c2ccccc12 (stereo not drawn)	3%	3%	0%
COc1ccc2ccc(OCC(=O)Nc3cc(C)on3)cc2c1	-14%	4%	5%
O=C1CC(C(=O)Nc2ccccc2)S/C(=N\NC(=O)c2ccccc2Cl)N1 (stereo not drawn)	-14%	0%	10%
CCOc1ccc(NC(=O)CN(C)Cc2ccc3c(c2)OCO3)cc1S(=O)(=O)N1CCCC1	-5%	-2%	0%
O=C(Nc1ccc(N2CCOCC2)cc1)C1CC(O)CN1S(=O)(=O)c1ccc(Cl)cc1 (stereo not drawn)	1%	-2%	-4%
C[C@H](CO)N1C[C@H](C)[C@@H](CN(C)C(=O)Nc2ccc(C(F)(F)F)cc2)Oc2c(cccc2N(C)C)C1=O	45%[activator]	-17%	19%
O=C(O)c1cccc(Sc2ccc(Br)cc2C(=O)O)c1	-1%	-3%	17%

Remaining list, next part:
Molecule | StopGo reporter | SARS PLP yeast | RE007 growth inh
CC(C)(C)OC(=O)N1O[C@H]2CC1[C@@H]1[C@@H]2N=NN1CCc1ccncc1 | -22% | -17% | 0%
Cc1ccsc1CN(C)CC(=O)NCC(=O)Nc1ccc(F)cc1 | -10% | 11% | 8%
COCc1cc(=O)c2ccccc2o1 | -9% | 8% | 4%
CCCCn1c(N)c(N(CCOC)C(=O)c2ccc(C)c(S(=O)(=O)N3CCOCC3)c2)c(=O)[nH]c1=O | -11% | 1% | 6%
O=C(c1cccnc1)N1CCN(c2ccc3ccccc3n2)CC1 | -24% | 6% | -18%
COc1ccc(S(N)(=O)=O)cc1C(=O)OCCCC(=O)c1ccccc1 | 27% | -1% | 4%
CC(C)(Oc1ccc(Cl)cc1)C(=O)Nc1c2c(nn1C(C)(C)C)CS(=O)(=O)C2 | -22% | -2% | -17%
Cc1ccc(C)c(OCC(=O)N(C)CC(=O)Nc2ccc(Cl)c(C(F)(F)F)c2)c1 | ? | 1% | 12%
CC(C)c1ccc(CN2CCN(S(=O)(=O)c3ccc(Cl)s3)CC2)cc1 | -26% | 3% | -30%
C[C@H](CO)N1C[C@H](C)[C@@H](CN(C)CC2CCCCC2)Oc2c(NC(=O)Cc3ccccc3)cccc2C1=O | -17% | 8% | 4%
O=C(COC(=O)CC1CCS(=O)(=O)C1)Nc1ccc(F)cc1 (stereo not drawn) | 12% | -3% | -6%
CSCCC(NC(=O)COc1ccccc1)C(=O)N(C)Cc1ccc(Cl)cc1Cl (stereo not drawn) | 39%[activator] | -7% | -1%
CC1CCCCN1C(=O)c1ccc(C(=O)c2ccccc2)cc1 (stereo not drawn) | 5% | -2% | 15%
Cc1ccsc1C(=O)OCC(=O)NCCCc1ccccc1 | 11% | -1% | -2%
COc1ccc(C(=O)Nc2ccc3c(c2)OCCO3)cc1S(=O)(=O)N1CCOCC1 | -9% | -17% | -22%
CC(C)(C)[C@@H]1COC(=O)[C@H](Cc2ccc(F)cc2)CC/C=C\C[C@@H](CC(=O)N(CCO)Cc2ccccc2)C(=O)N1 | -16% | -5% | -5%
O=C(CC1CCCC1)NNC(=O)c1ccc(Br)cc1 | 44%[activator] | -7% | 20%
CC(Sc1nc(N)cc(N)n1)C(=O)NCCC1=CCCCC1 (stereo not drawn) | -4% | 1% | 2%
CN(CC(=O)Nc1ccc(Cl)c(C(F)(F)F)c1)C(=O)CCCNC(=O)c1ccc(Cl)cc1 | 7% | -4% | -12%
CC(OC(=O)C(C)Oc1ccccc1)C(=O)Nc1ccc(S(=O)(=O)N2CCCCC2)cc1 (stereo not drawn) | -25% | 0% | 10%
COc1ccc(NS(=O)(=O)c2cccc(C(=O)NN=C(C)c3ccco3)c2)cc1 | 47%[activator] | 5% | -3%
CS(=O)(=O)c1ccc(-c2sc3ccccc3c2C(=O)N2CCN(c3ccc(F)cc3)CC2)cc1 | 40%[activator] | 3% | -8%
Cc1ccc(S(=O)(=O)N(C)C)cc1NC(=O)COC(=O)/C=C/c1cnc2ccccc2n1 | 0% | -9% | 27%
Cc1cnc(C(=O)OCC(=O)NCc2ccc(Cl)cc2)cn1 | -2% | 1% | 9%
Cc1cc(CNC(=O)COC(=O)C2CC3CCCC(C2)C3=O)cc(C)c1O (stereo not drawn) | -11% | 2% | -8%
O=C1[C@H]2[C@@H](c3ccc(Cl)cc3)N3C(=O)N(c4cccc(F)c4)C(=O)[C@@]3(Cc3ccccc3)[C@H]2C(=O)N1C1CCCCC1 | -22% | -4% | -2%
CCN(CC(=O)Nc1ccc2c(c1)OCCO2)C(=O)CN1C(=O)NC(C)(c2ccc(C)cc2)C1=O (stereo not drawn) | -3% | 1% | -6%
COc1ccc2c(COC(=O)CNS(=O)(=O)c3ccc(C)c(C)c3)cc(=O)oc2c1 | 3% | 9% | -17%
O=C(C[C@H]1C/C=C\C[C@@H](Cc2ccc(F)cc2)C(=O)OC[C@H]2CCCN2C1=O)N[C@@H](CO)Cc1ccccc1 | -19% | 4% | -2%
O=C(Cn1cc(C(F)(F)F)ccc1=O)NC1CCCC1 | 9% | -2% | 8%
NC(=O)c1ccc(NC(=O)COC(=O)c2n[nH]c3ccccc23)cc1 | 15% | 4% | 14%
